Screens (PubChem)
Cruzain inh noDet – qHTS Assay for Promiscuous and Specific Inhibitors of Cruzain (without detergent); Cruzipain (Trypanosoma cruzi), P25779; purified cruzain, Z-FR-AMC fluorescence, no detergent; Potency, µM, without a hit: max response, negative = inhibition, most hits filed as inhibitors; 2.3% of 200,000 active; AID 1476, 2009; active = well fitted curve in the direction sought with a large enough effect; inconclusive = small, poorly fitted or top-dose-only effect, or another doubt; inactive = no such curve, though single readings can be large; an effect the other way counts as inactive or inconclusive;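 also: plate controls were enzyme without inhibitor for no effect and buffer without enzyme for full effect; nearly all actives have a fitted effect of over 40% in size; top concentration of the series not given in the record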
Target sequence (P25779 123-467 limits assumed): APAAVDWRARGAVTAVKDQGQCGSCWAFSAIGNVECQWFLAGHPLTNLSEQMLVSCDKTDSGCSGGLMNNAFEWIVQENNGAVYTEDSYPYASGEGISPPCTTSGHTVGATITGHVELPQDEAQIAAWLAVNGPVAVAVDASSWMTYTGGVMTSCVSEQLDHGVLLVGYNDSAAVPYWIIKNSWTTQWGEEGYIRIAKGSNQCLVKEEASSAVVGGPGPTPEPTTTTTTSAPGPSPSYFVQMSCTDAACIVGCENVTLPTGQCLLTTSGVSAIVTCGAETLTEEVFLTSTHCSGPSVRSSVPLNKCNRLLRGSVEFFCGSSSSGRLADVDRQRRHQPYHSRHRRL
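Detergent-free condition (0.00005% Triton X-100) in acetate buffer pH 5.5 with DTT. 1.5 nM enzyme and compound were pre-mixed 15 min, then 2 uM Z-FR-AMC substrate added; reaction progress from fluorescence change between first and third reads (60 s).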
Cruzain inh Det – qHTS Assay for Promiscuous and Specific Inhibitors of Cruzain (with detergent); AID 1478, 2009; Potency, µM, without a hit: max response, negative = inhibition, hits mostly inhibitors; 0.43% of 200,000 active; Cruzipain (Trypanosoma cruzi), P25779; purified cruzain, Z-FR-AMC fluorescence, 0.01% Triton; active = well fitted curve in the direction sought with a large enough effect; inconclusive = small, poorly fitted or top-dose-only effect, or another doubt; inactive = no such curve, though single readings can be large; an effect the other way counts as inactive or inconclusive;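 also: plate controls were neutral wells for no effect and buffer without enzyme for full effect; nearly all actives have a fitted effect of over 40% in size; top concentration of the series not given in the record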
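Cysteine protease activity tested under reducing, mildly acidic conditions (100 mM sodium acetate pH 5.5, 5 mM DTT) plus 0.01% Triton X-100. Cruzain 1.5 nM; substrate Z-FR-AMC 2 uM; 15 min compound preincubation at room temperature.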
MARV entry inh – qHTS for inhibitors of binding or entry into cells for Marburg Virus | Marburg virus pseudotyped entry inhibition, cell reporter; control for the full effect not named in the record; about a third of the inactives were read at about 46 µM | Potency, µM (series often up to 37.8 µM), inactives show at the top dose activity change, negative = inhibition, hits mostly inhibitors | 1.8% of 300,000 active | AID 540276, 2011; active = well fitted inhibition curve with a large enough effect; inconclusive = small, poorly fitted or top-dose-only effect, or effect the other way; inactive = flat fitted curve, though single readings scatter; tested in HEK293 cells; about a fifth of its hits are not listed in these tables; also: % is scaled to controls: 0 for no effect and ±100 for the full control effect; luciferase read-out
LASV entry inh – qHTS for Inhibitors of binding or entry into cells for Lassa Virus | Potency, µM (doses to about 37.9 µM), for inactives: at the top dose activity change, negative = inhibition, most hits filed as inhibitors | Lassa virus pseudotype entry inhibition, cell reporter; control for the full effect not named in the record | 1.2% of 300,000 active; active means well fitted inhibition curve with a large enough effect; inconclusive means small, poorly fitted or top-dose-only effect, or effect the other way; inactive means flat fitted curve, though single readings scatter; tested in HEK293 cells; also: % is scaled to controls: 0 for no effect and ±100 for the full control effect; nearly all actives have a fitted effect of over 50% in size; luciferase read-out
2A StopGo – High Throughput Screening for Foot and Mouth Disease Virus Antivirals | Potency, µM (top dose mostly 57.9 µM), for the others: at the highest dose signal change, negative = less light | human cells with a luciferase reporter of 2A StopGo recoding; control for the full effect not named in the record | 1.2% of 410,000 active; active = well fitted falling curve with a large enough effect; inconclusive = small, poorly fitted or top-dose-only effect; inactive = no such curve, though single readings can be large or run the other way; tested in HEK293T cells; also: % is scaled to controls: 0 for no effect and ±100 for the full control effect; nearly all actives have a fitted effect of over 45% in size; luciferase light after 4 h
RE007 growth inh – qHTS Assay for Inhibitors of the HIV-1 protein Vpr. S. pombe RE007 Vpr strain, BacTiter-Glo ATP luminescence, 24 h; control for the full effect not named in the record. 0.21% of 360,000 active. Potency, µM (titrated, usually from 92.2 µM), for inactives: top-dose activity change, negative = less growth. AID 651644, 2012; active = well fitted falling curve with a large enough effect; inconclusive = small, poorly fitted or top-dose-only effect; inactive = no such curve, though single readings can be large or run the other way;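 also: % is scaled to controls: 0 for no effect and ±100 for the full control effect; nearly all actives have a fitted effect of over 50% in size; the assay follows cell death caused by Vpr and the record does not say whether a fall means rescue or toxicity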
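Fission yeast RE007 carrying one integrated HIV-1 vpr copy, seeded at OD 0.01 in PMG+AL medium with 23 nL pinned compound. Grown 24 h at 30 degrees; viability read by BacTiter-Glo luminescence after 5 min.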
NS1 function inh – qHTS Assay for Inhibitors of Influenza NS1 Protein Function; S. cerevisiae slowed by influenza A NS1, growth recovery by OD600; Potency, µM (top dose mostly 46.1 µM), inactives show top-dose activity, positive = more growth; 0.4% of 270,000 active; AID 2326, 2010; also: actives are rising curves; nearly all actives have a fitted effect of over 50% in size
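In this qHTS, NS1 from influenza A is expressed in budding yeast, where it slows growth. Cells are switched from glucose to 2% galactose medium (pH 6.0, -URA), treated with compound, and growth recovery is read at OD600.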
SARS PLP yeast – qHTS of Yeast-based Assay for SARS-CoV PLP; Potency, µM (series often up to 32.9 µM), for the others: at the highest dose activity, positive = growth rescue; 0.19% of 330,000 active; S. cerevisiae expressing SARS-CoV PLpro, growth rescue; control for the full effect not named in the record; AID 485353, 2010; also: 0% is about no effect; nearly all actives have a fitted effect of over 55% in size; growth read by luminescence after 48 h
* marks the source's active call; other numbers are inactive results; u = inconclusive; x = not tested or not shown; & = joins results of further samples; [ ] = remark or other dose. Unless noted, calls follow the shape of the dose curve; as a rule, active means well fitted rising curve with a large enough effect; inconclusive means small, poorly fitted or top-dose-only effect; inactive means no such curve, though single readings can be large or run the other way. Potency is read from the fitted curve at half-maximal effect.

SMILES	Cruzain inh noDet	Cruzain inh Det	MARV entry inh	LASV entry inh	2A StopGo	RE007 growth inh	NS1 function inh	SARS PLP yeast
Cc1ccc(OCCC(=O)OCC(=O)N2CCN(S(=O)(=O)c3ccc(C)cc3C)CC2)cc1	x	x	8%	10%	-26%	11%	x	4%
CC(C)n1cc(C(=O)NC2CC(C)(C)Cc3c2cnn3-c2ccccc2)cn1 (configuration not stated)	x	x	x	x	-4%	6%	-3%	-1%
O=C(NCc1cccnc1)C1CCC(c2ccc(Cl)cc2)CC1 (configuration not stated)	x	x	u	-20%	u	49%	-9%	-2%
Cc1cccc(-c2nc3ccccc3c(=O)n2NC(=O)/C=C/c2ccc([N+](=O)[O-])cc2)c1	u	-7.7%	u	u	0%	0%	u	-10%
Cc1noc(/C=C/c2cccs2)c1S(=O)(=O)N1CCC(C(=O)Nc2ccc(F)c(Cl)c2)CC1	u	-2.4%	14%[46.1 µM]	-21%[46.1 µM]	u	x	x	x
CN1C(=O)C2(NC(=O)c3ccccc3N2C)c2ccccc21 (configuration not stated)	x	x	x	x	-11%	-9%	2%	0%
Cc1ccc(NC(=O)OCCNC(=O)OC(C)C)cc1	x	x	u	-11%	48%[activator]	0%	x	9%
COc1ccc(-c2[nH]c3c(c2-c2c(-n4cccc4)n(C)c(=O)[nH]c2=O)c(=O)[nH]c(=O)n3C)cc1F	2%	0.3%	-14%[46.1 µM]	2%[46.1 µM]	-11%	x	x	x
COc1ccc(NC(=O)c2ccc3nc(CCc4ccccc4)oc3c2)cc1	16%	5.7%	x	11%[46.1 µM]	24%	x	x	x
COc1ccc2c3c(cccc13)C(=O)CC2	x	x	-1%	15%	-11%	-20%	-38%	-3%
Cc1c(C=O)c2ccccc2n1Cc1ccccc1F	x	x	u	4%[46.1 µM]	-26%	20%	-5%	1%
O=C(N/N=C/c1cc([N+](=O)[O-])ccc1O)c1c[nH]c2ccccc12	x	x	x	x	-17%	3%	-2%	14%
Nn1c(CSc2ccccn2)nc2ccccc2c1=O	-1%	-2.3%	14%	0%	31%[activator]	8%	-9%	21%
Cc1cc(NC(=O)C(C)C)ncc1NC(=O)c1ccccn1	x	x	11%	1%	12%	18%	-2%	0%
COc1ccc(CN2C(=O)NC(=O)/C(=C\c3ccc(OC)c(OC)c3OC)C2=O)cc1	x	x	u	12%	-20%	-15%	x	1%

Ordered by SMILES length (rising): part of the list above.
SMILES	Cruzain inh noDet	Cruzain inh Det	MARV entry inh	LASV entry inh	2A StopGo	RE007 growth inh	NS1 function inh	SARS PLP yeast
Nn1c(CSc2ccccn2)nc2ccccc2c1=O	-1%	-2.3%	14%	0%	31%[activator]	8%	-9%	21%
CC(C)n1cc(C(=O)NC2CC(C)(C)Cc3c2cnn3-c2ccccc2)cn1 (configuration not stated)	x	x	x	x	-4%	6%	-3%	-1%
COc1ccc(CN2C(=O)NC(=O)/C(=C\c3ccc(OC)c(OC)c3OC)C2=O)cc1	x	x	u	12%	-20%	-15%	x	1%

The results go on:
SMILES	Cruzain inh noDet	Cruzain inh Det	MARV entry inh	LASV entry inh	2A StopGo	RE007 growth inh	NS1 function inh	SARS PLP yeast
O=C(NCC1CCCO1)C1CCN(C2CCN(C3CCCCCC3)CC2)CC1 (configuration not stated)	x	x	u	8%[46.1 µM]	-12%	1%	4%	0%
CC(=O)c1c(N2CCOCC2)nc(=O)n(-c2ccccc2)c1C	-2%	3.7%	24%	17%	x	-14%	7%	14%
C/C(CCN1CCc2nc(-c3ccccc3)c(-c3ccccc3)cc2C1)=N\O[C@@H](C)c1cc(-c2c(C)cc(C)cc2C)no1	20µM*	-1.7%	-11%	8%	-12%	2%	u	3%
CC12CCC(=O)N1C(C(=O)Nc1nc(-c3ccccc3Cl)cs1)CS2 (configuration not stated)	x	x	u	-19%	-11%	1%	x	-10%
Cc1ccc(OC(=O)c2cc(-c3ccc4c(c3)OCCO4)on2)cc1C	-5%	-5.2%	0%[46.1 µM]	16%[46.1 µM]	28%	x	x	x
CC1(C)CC(=O)c2cc(-c3nc(-c4ccc(Cl)cc4)cs3)c(=O)n(-c3ccc(F)cc3)c2C1	-9%	-1.6%	29%[46.1 µM]	21%[46.1 µM]	1%	x	x	x
Cc1cc(C)c2ccc(=S)[nH]c2n1	x	x	-13%[46.1 µM]	-15%	-8%	-22%	x	13%
O=C(O)CNC(=O)CC1S/C(=N/N=C2\CSC(=O)N2)NC1=O (configuration not stated)	x	x	x	x	2%	10%	2%	5%
COc1ccc(C(CNC(=O)c2oc3c(Cl)cccc3c2C)N2CCCC2)cc1 (configuration not stated)	x	x	u	u	-23%	1%	x	-6%
COc1ccc(N(CC(=O)NCc2ccncc2)S(=O)(=O)c2ccccc2[N+](=O)[O-])c(OC)c1	x	x	5%[46.1 µM]	0%[46.1 µM]	7%	-11%	-1%	0%
COc1cc(/C=C(/NC(=O)c2ccccc2)C(=O)Nc2cccc(O)c2)c([N+](=O)[O-])cc1OC	-20%	-4.3%	2%	7%	-32%	0%	-3%	-4%
O=C(CSc1nnc(CNC(=O)c2ccc(F)cc2)o1)NCc1ccc2c(c1)OCO2	x	x	u	10%	8%	-1%	6%	4%
COc1ccc(/C=C2/SC(=S)N(CCCC(=O)Nc3ccc(O)cc3)C2=O)cc1	x	x	x	x	-7%	-4%	4%	0%
COc1cccc(NC(=S)N(Cc2cccc(Br)c2)CC2CCC(C(=O)O)CC2)c1 (configuration not stated)	x	x	1%[46.1 µM]	-2%[46.1 µM]	-4%	1%	x	-3%
O=C(CN1CCN(C(=O)c2ccc(OCc3cn4ccccc4n3)cc2)CC1)Nc1cccc(F)c1	x	x	-24%[46.1 µM]	-3%[46.1 µM]	-23%	-5%	x	-1%
CC(=O)N1c2ccc(S(=O)(=O)NCCC(=O)NCc3ccc(N(C)C)cc3)cc2CC1C (configuration not stated)	x	x	x	x	-16%	-8%	-10%	0%
COc1ccc(CN2CCc3ccccc3C2)c(OC)c1OC	10%	6.5%	-4%	5%	-2%	6%	-4%	-12%
c1ccc(NC2=Nc3cccc4cccc2c34)cc1	x	x	4%[14.2 µM]	18%	21%	u	x	3%
CCC(=O)c1ccc(OCc2ccc(C(=O)c3ccccc3)cc2)cc1	x	x	u	5µM*	u	-6%	-9%	1%
CSCCC(N=CC1=C(O)CC(C)(C)CC1=O)C(=O)O (configuration not stated)	u	2.2%	7%	10%	-10%	-5%	-2%	0%
NC(=O)CC(NC(=O)c1ccc(Br)cc1)c1ccc(N2CCN(c3ccc(F)cc3)CC2)c([N+](=O)[O-])c1 (configuration not stated)	x	x	x	x	0%	-1%	14%	7%
C=CCn1c(SCC(=O)N(CCOC)c2c(N)n(CCCC)c(=O)[nH]c2=O)nnc1-c1ccc(Cl)cc1	x	x	2%[46.1 µM]	0%	-14%	-6%	x	-4%
COc1cccc2c(Cl)c(CCCl)c(C)nc12	x	x	u	-27%[46.1 µM]	-4%	-27%	-15%	2%
Cc1nc(N2CCCC2)ncc1C(=O)Nc1ccc(OC(F)(F)F)cc1	8%	0.3%	x	0%[46.1 µM]	-16%	x	x	x
Cc1ccc(/C=C2\SC(=S)N(c3c(C)n(C)n(-c4ccccc4)c3=O)C2=O)cc1	u	-5.3%	0%	-8%	x	19%	-28%	-6%
CN(C(=O)Nc1ccccc1)n1cnc2ccccc2c1=O	x	x	-15%	0%	9%	-12%	1%	1%
Cc1ccc(C)c(S(=O)(=O)N2CCN(C(=O)C(C)Sc3ccccc3)CC2)c1 (configuration not stated)	x	x	2%	u	-27%	3%	-17%	-3%
CCOC(=O)/C=C1/SCC(=O)N1CC(=O)NC12CC3CC(CC(C3)C1)C2	x	x	u	2%[46.1 µM]	-1%	1%	x	x
COC(=O)\C(C(C)=O)=C(/C=C/C=C/C=C/N(C)C)N(C)C	u	-0.1%	u	0%	-20%	-13%	15%	-3%
Cc1noc(C)c1COC(=O)c1csc2c1CCCC2	x	x	13%[46.1 µM]	u	-17%	u	x	5%
CCN/N=C(\Cc1nc2ccccc2[nH]1)c1ccccc1	x	x	-30%[46.1 µM]	x	61%[activator]	9%	1%	2%
C=C(C)C1CC=C(C)/C(=N/NC(=O)c2cccs2)C1 (configuration not stated)	-11%	-3.4%	u	2%	13%	7%	1%	9%
CS(=O)(=O)n1nc(-c2ccc(Cl)cc2)nc1SCc1ccccc1	-6%	-3.5%	3%	u	-18%	u	-12%	-31%
O=C(NCCN1CCOCC1)C1CCCN(S(=O)(=O)c2ccc(F)cc2)C1 (configuration not stated)	x	x	u	1%	4%	0%	13%	1%
Cc1sc2nc(SCc3nc(-c4ccccc4)no3)n(-c3ccccc3)c(=O)c2c1C	25µM*	-2.6%	3%&3%	-4%	-12%	-5%	8%	22%
S=C(NCCc1ccccn1)Nc1cccc(Cl)c1	5%	-2.1%	-4%	u	77%[activator]	4%	-8%	20%
Cc1ccc(NC(=O)c2ccc3c(c2)CCN3S(C)(=O)=O)c(C)c1	x	x	x	x	15%	11%	10%	-3%
CCOC(=O)c1c(C)[nH]c(C(=O)OCc2ccccc2)c1C	x	x	u	u	23%	4%	-5%	-2%
O=C(CCCOc1ccc(Cl)cc1Cl)Nc1ccc(O)cc1C(=O)O	x	x	u	13%	12%	-10%	4%	1%
COc1ccc(O)c(CN2CCC(n3nccc3NC(=O)c3ccccc3Cl)CC2)c1	x	x	u	2%	-20%	16%	6%	-1%
Cc1cnc(C(=O)Nc2ccc(C)c(S(=O)(=O)N3CCCCC3)c2)cn1	x	x	u	4%	-2%	-19%	x	-19%
Cn1c(=O)c2[nH]c(SCC(=O)c3ccc(F)cc3)nc2n(C)c1=O	x	x	0%[46.1 µM]	u	3%	7%	4%	2%
COc1ccc2c(OC)c3ccoc3nc2c1OC	-1%&-13%	-1.9%&-5.0%	x	x	7%	-11%	-8%	6%
